Source: PubChem BioAssay
PrP 5UTR inh – inhibition of PrP 5' UTR reporter expression; cell-based PrP 5' UTR mRNA reporter, plate reader; inhibition, % (test concentration not listed); 340,000 compounds, 0.35% hits; AID 488862, 2010;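 active means every replicate at 50% or more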;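 further: 0 = median of the neutral control wells; tested in H4 reporter cells; numbers are from one replicate; inactives centre near -14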
BJeLR lethal – MLPCN primary cell-based screen for lethality selective to Ras in HRASV12 cells; BJeLR (HRASV12) viability, CellTiter-Glo ATP luminescence, 48 h; reference of the scale not given here; inhibition, % (test concentration not listed); 300,000 compounds, 0.17% hits; AID 1554, 2009;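 active means replicate mean above 50%; inconclusive means above 50% but judged a plate artefact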;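 further: 50 nL library stock added to about 25 µL; numbers are from one replicate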
ugtP null kill – growth inhibition of ugtP-null S. aureus, primary screen, RN4220 ugtP deletion, OD600; 16 h; some inactives read as strong as hits; 330,000 compounds, 0.54% hits; growth inhibition, % (no concentration beside the values);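 active means z-score under -3 and OD600 up to 0.15 on both plates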;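 further: plate controls were untreated wells for no effect and antibiotic for full effect; wells of about 80 µL received 100 nL stock; the first replicate is given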
Mtb hypoxia rep – PubChem AID 1159583; fluorescence inhibition, % (no concentration beside the values); 300,000 compounds, 0.1% hits; M. tuberculosis hypoxia-regulated fluorescent reporter, fluorescence;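 active means 35 to 45% if threefold the growth effect, above 45% if 1.5-fold the growth effect; inactive means the rest, general growth blockers included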;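 further: wells of about 50 µL received 100 nL stock; 0% = vehicle wells and 100% = reference inhibitor wells; whole bacteria with a GFP reporter of the hypoxia response; strong numbers were not always called active; many hits fall short of the cut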
Sa RN4220 lethal – growth inhibition of S. aureus RN4220, primary screen, OD600; 330,000 compounds, 0.33% hits; inhibition, % (test concentration not listed); 16 h; AID 1259311, 2017;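 active means z-score of -3 or lower and OD600 up to 0.18 on both plates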;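 further: plate controls were untreated cells for no effect and reference antibiotic for full effect; stock transfer was 100 nL into about 80 µL; one replicate is shown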
Bead autofluor – compound fluorescence in toxin protease inhibitor counterscreen. compound autofluorescence counterscreen, microsphere flow cytometry; stronger effect = higher value. AID 624483. fluorescence intensity (test concentration not listed). 360,000 compounds, 3.1% hits;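 active means at least 3 SD above the mean of all compounds, about 16000 in these data; inconclusive means too few beads counted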;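 further: 100 nL of 1 mM stock went into each well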
Mtb hypoxia rep growth – further read-out of Mtb hypoxia rep, marked with its call; growth inhibition, %; measured here: M. tuberculosis growth (absorbance);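 0% = vehicle and 100% = reference antibiotic; read after six days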
Starred values were filed as active, the others as inactive; ? = inconclusive; nt = no result given. Hits appear at their usual frequency (roughly 4% active in at least one column).

item | mol | PrP 5UTR inh | BJeLR lethal | ugtP null kill | Mtb hypoxia rep | Mtb hypoxia rep growth | Sa RN4220 lethal | Bead autofluor
1 | N#Cc1ncn(-c2ccc(Oc3ccccc3)cc2)c1N | -11 | 0 | 2 | 0 | -1 | 7.4 | 4465
2 | O=c1[nH]c2cccc(Cl)c2n(CCNc2ncc(C(F)(F)F)cc2Cl)c1=O | -6 | 13 | 9 | nt | nt | 2.0 | 4834
3 | CCOc1ccccc1NC(=O)c1ccc2nccnc2c1 | -15 | 2 | 1 | 1 | 4 | 4.3 | 5968
4 | Cc1ccc(N2CC(C(=O)NCc3ccccn3)CC2=O)cc1 (stereo not given) | -46 | 1 | 3 | 0 | 6 | 1.8 | 4265
5 | COC(=O)Cn1cnc2ccccc2c1=O | -34 | 1 | -3 | nt | nt | -1.0 | 2392
6 | O=C(COC(=O)c1ccccc1F)NNC(=O)c1ccccc1 | -12 | 14 | 2 | -4 | 0 | 4.7 | nt
7 | CN(C)c1ccc(/C=C(/C#N)C(=O)NCc2ccccc2)o1 | -44 | -4 | -2 | 8 | 2 | 5.9 | 2622
8 | NC(=O)c1ccc(C(F)(F)F)n(Cc2ccc(Cl)cc2)c1=O | -15 | 7 | -11 | 7 | 3 | 2.7 | 8035
9 | COc1cccc(-c2nc(-c3ccccc3)c(-c3ccccc3)[nH]2)c1OCC(=O)O | -39 | 0 | 7 | 4 | 10 | -4.6 | 3726
10 | CC(C)C1OC2c3cccc4cccc(c34)C2N1c1ccccc1 (stereo not given) | -8 | 2 | 90* | 1 | 14 | -3.1 | ?
11 | c1csc(C2Nc3ccccc3-c3nc4ccccc4n32)c1 (stereo not given) | -17 | 2 | 15 | 8 | 7 | 10 | 2451
12 | COc1ccc(S(=O)(=O)N2CCCC(C(=O)N3CCCC3)C2)cc1OC (stereo not given) | 3 | 4 | 1 | 1 | -4 | 2.6 | ?
13 | COCCn1c(SCC(=O)Nc2cc(C)on2)nnc1-c1ccco1 | -3 | -5 | 2 | nt | nt | 3.1 | 4633
14 | Cc1cccc2cc(CN(Cc3ccco3)C(=O)c3cccs3)c(=O)[nH]c12 | -5 | 5 | 12 | 1 | 12 | 5.2 | 2462
15 | COc1ccc(OCC(=O)NNC(=O)C(=O)N2CCCC2)cc1 | -30 | 1 | 7 | 9 | 3 | 0.9 | 2236
16 | Cc1cc(C)n2nc(SC(C)C(=O)Nc3ccccc3F)nc2n1 (stereo not given) | -10 | nt | 2 | 1 | 8 | 2.9 | 3980
17 | Cc1ccc2c(c1)CC1(CN2C)C(=O)OC(C)(C)OC1=O | -18 | 0 | 5 | 5 | 5 | 1.9 | 10546
18 | O=C(NCCc1cccc(Cl)c1)c1cc2ccccc2oc1=O | -31 | -1 | 12 | 15 | 3 | 2.9 | 4240
19 | CCOC(=O)CNC(=O)c1cn(CC)c(=O)c2cc(OC)c(OC)cc12 | -11 | -10 | 7 | 6 | -3 | 0.2 | 4323
20 | CC(=O)N1CCN(S(=O)(=O)c2c(F)cc(F)c(Cl)c2F)CC1 | -5 | -6 | 4 | -8 | -4 | 9.1 | 3592
21 | Cc1ccc(S/C=C\C(=O)c2ccccc2)cc1 | -43 | -5 | 30 | 3 | 2 | 9.0 | 11324
22 | O=C(COc1nc2ccccc2nc1N1CCOCC1)N1CCc2ccccc21 | -7 | 4 | 2 | -9 | 20 | 6.7 | 3660
23 | COc1cc(OC)c(C(=O)OCC(=O)c2ccc3c(c2)NC(=O)CO3)cc1OC | nt | nt | 4 | -2 | -3 | 3.9 | 5620
24 | O=C(OC[C@@H]1CCCN2CCCC[C@H]12)c1cc2ccccc2oc1=O | -1 | 2 | nt | nt | nt | nt | 7807
25 | Cc1cccc(N(CC(=O)NCc2ccco2)C(=O)CCC(=O)Nc2nccs2)c1 | -10 | 4 | 13 | 3 | -5 | 4.3 | 4809
26 | COCCSc1nnc(NS(=O)(=O)Cc2ccccc2)s1 | -33 | 3 | 4 | 7 | 15 | 2.6 | 12450
27 | CCOC(=O)C1CCCN(C(=O)c2ccc(-c3ccc([N+](=O)[O-])cc3)o2)C1 (stereo not given) | -32 | 3 | 3 | 10 | 1 | 5.0 | 6049
28 | Cc1cc(=O)[nH]c(N/N=C/C=C/c2ccccc2)n1 | -2 | -4 | nt | nt | nt | nt | 2568
29 | CN(CC(=O)NCc1cccc(F)c1)C(=O)c1ccco1 | -30 | -1 | 5 | 3 | 0 | 3.1 | 9230
30 | CC(C)CC1NC(=O)N(CC(=O)Nc2ccc(OCc3ccccc3)cc2)C1=O (stereo not given) | -15 | nt | 6 | 7 | 18 | 1.9 | nt
31 | CN(C)CCN(Cc1ccccc1)c1ccccn1 | -17 | -1 | 7 | 5 | 5 | 7.1 | 5530
32 | COC(=O)Nc1ccc(S(=O)(=O)NNC(=O)c2c(O)c3ccccc3[nH]c2=O)cc1 | -45 | -10 | 10 | -5 | 0 | 1.7 | 4001
33 | COc1cc(-c2cc(N3C(=O)Nc4ccccc4N3O)n[nH]2)cc(OC)c1OC | -15 | -2 | -1 | -10 | -2 | 3.9 | 1884
34 | COc1ccc(S(=O)(=O)N2CCC(C(=O)NCCN3CCOCC3)CC2)cc1OC | -33 | 7 | 12 | 3 | -7 | 3.3 | 3496
35 | CC[N+](C)(C)Cc1ccccc1Br | 0 | -8 | nt | nt | nt | nt | 5788
36 | CN(Cc1ccco1)Cc1ccc(O)c2ncccc12 | -15 | nt | 2 | 10 | 3 | 1.5 | 3125
37 | COc1cc(C=NNC(=O)C(N)=O)cc(OC)c1O | nt | nt | -66 | nt | nt | 6.4 | nt
38 | CCOC(=O)C1CCCN(S(=O)(=O)c2ccccc2)C1 (stereo not given) | -17 | -2 | -1 | 4 | -5 | -1.2 | 22239*
39 | C[C@]12C[C@H](O)[C@@H]3c4ccc(O)cc4CCC3[C@@H]1CCC2=O (stereo not given in full) | nt | -6 | 8 | 9 | -2 | 4.1 | 4296
40 | CCOC(=O)c1c(C)[nH]c(C=Nc2ccc(OC)cc2)c1O | -53 | -3 | 3 | nt | nt | -2.3 | 4743
41 | Cc1cccc(-c2nc(CSCC(=O)N3CCN(Cc4ccc5c(c4)OCO5)CC3)c(C)o2)c1 | -14 | 1 | -6 | 6 | 5 | -4.4 | 2941
42 | COc1cc(NC(=O)C2CCN(S(=O)(=O)c3ccc4[nH]c(=O)oc4c3)CC2)cc(OC)c1 | 8 | 3 | -2 | -4 | 8 | 2.9 | 5998
43 | O=C(C1COc2ccccc2O1)N1CCN(c2nc3c(F)cc(F)cc3s2)CC1 (stereo not given) | -1 | -2 | -2 | -12 | -16 | 1.9 | ?
44 | COc1ccc(NS(=O)(=O)c2ccc(C(=O)N3CCN(c4ccc(F)cc4)CC3)cc2)cc1 | 3 | nt | -4 | -4 | 0 | 3.0 | 3810
45 | Cc1ccc(-c2onc3ccc(C(=O)/C=C/N(C)C)cc23)cc1 | -7 | -5 | 9 | 3 | 8 | 14 | 3416
46 | COc1ccc2[nH]c(C(=O)Nc3ccc4c(c3)OCO4)cc2c1 | nt | -15 | -17 | -2 | 10 | -0.4 | 5604
47 | CC(C)C(NC(=O)c1ccco1)C(=O)OCc1cc([N+](=O)[O-])cc2c1OCOC2 (stereo not given) | -9 | 1 | 4 | 16 | 1 | 4.1 | 4359
48 | CCC1CCCCN1CCCNC(=O)CS(=O)(=O)Cc1nc(-c2cccc(OC)c2)oc1C (stereo not given) | -18 | 7 | 8 | -9 | -13 | 0.1 | 4443
49 | CN=C(Nc1ccc(Cl)cc1)c1ccc(C(F)(F)F)cc1 | -26 | 3 | -5 | 2 | 8 | 1.0 | 4129
50 | N#CCc1c(C#N)c(N)nc(N2CCCC(CO)C2)c1C#N (stereo not given) | -22 | 9 | 9 | -9 | -5 | 14 | 3980
51 | O=C(NCCc1ccco1)c1ccc(OCc2cn3ccccc3n2)cc1 | -35 | nt | -1 | 9 | 12 | 3.7 | 3986
52 | O=C(Nc1ccccc1)C1CC(=O)N(c2ccc3c4c(cccc24)CC3)C1 (stereo not given) | -32 | -2 | 6 | 6 | 5 | 3.2 | 7191
53 | Oc1c(Br)cc2oc3c(c2c1CNCc1ccccc1)CCCC3 | 6 | 1 | -11 | nt | nt | -2.6 | 3024
54 | COC(=O)CN(n1cnnc1)S(=O)(=O)c1ccccc1Cl | -17 | -3 | 4 | 3 | 9 | 5.9 | 8908
55 | CCCSc1nsc(NC(=O)CCC)n1 | -35 | 12 | 2 | 5 | 4 | 3.2 | 4153
56 | COc1cccc(S(=O)(=O)NCC(=O)N2CCCC2)c1 | -11 | -6 | 9 | -2 | 3 | 1.9 | 3275
57 | COc1nc(N=C(N)N)nc2ccc(C)cc12 | nt | -6 | 3 | 3 | 7 | -2.9 | nt
58 | O=C(NN=Cc1cccc(O)c1)NN=Cc1cccc(O)c1 | nt | nt | 13 | 5 | 11 | -3.3 | nt
59 | Cc1ccc(S(=O)(=O)N2CCC(C(=O)OCc3ccc([N+](=O)[O-])cc3)CC2)cc1 | 2 | -7 | -5 | 15 | 10 | 4.7 | 2555
60 | CCC1=C2CC[C@H]3C(=O)N(CC)C(=O)[C@H]3[C@H]2[C@@]2(Cc3ccccc3)C(=O)N(Cc3ccccc3)C(=O)N2C1=O | -20 | 8 | nt | nt | nt | nt | 3980

Next results.
item | mol | PrP 5UTR inh | BJeLR lethal | ugtP null kill | Mtb hypoxia rep | Mtb hypoxia rep growth | Sa RN4220 lethal | Bead autofluor
61 | Cc1noc(C)c1S(=O)(=O)N1CCC(C(=O)N(C)Cc2ccccc2)CC1 | -3 | -4 | 8 | nt | nt | 0.8 | 2934
62 | COc1ccc(/C=C/C(=O)OCCNC(=O)c2ccncc2)cc1OC | -11 | -20 | 2 | 3 | 1 | 27 | 4220
63 | C=CCc1ccccc1OCC(O)Cn1ccnc1C (stereo not given) | -45 | -16 | -3 | 2 | 1 | 1.3 | 4406
64 | Brc1ccccc1OCCCOc1cccc2cccnc12 | -31 | -23 | 16 | 10 | 3 | 6.1 | 3049
65 | CS(=O)(=O)c1ccc2nc(NC(=O)c3cccc(Cl)c3)sc2c1 | -52 | 0 | 7 | 3 | -3 | -2.4 | 3347
66 | COc1ccc(C(C)=O)cc1CSc1nnc2c(Cl)cc(Cl)cn12 | -16 | 8 | 13 | -6 | 0 | -0.8 | 2175
67 | CC1CCN(c2nc3ccc(C(=O)N4CCN(Cc5ccccc5)CC4)cc3s2)CC1 | -54 | 4 | -24 | -7 | 3 | 1.2 | 6450
68 | O=C(CN1CCN(S(=O)(=O)c2ccc(Br)cc2)CC1)NN=Cc1cccs1 | nt | nt | 1 | 5 | 7 | 1.8 | nt
69 | O=C(NCc1ccccn1)c1ccco1 | -14 | -11 | 10 | 2 | 4 | 4.1 | 2411
70 | COCCNC(=S)Nc1ccc(S(=O)(=O)Nc2cnc3ccccc3n2)cc1 | -9 | 0 | 11 | 13 | 10 | 3.9 | 4345
